Compound activity from PubChem.
Tg IFNy HTS – blocks Toxoplasma gondii growth in the presence of IFN-gamma. activity change, negative = inhibition, %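 (about 20 µM by stock and volumes)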. 3.8% of 69,000 active. AID 1259416. Toxoplasma gondii growth in IFN-gamma-treated host cells; hits give low values; reference of the scale not given here;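 active means below -70%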;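 further: host cells are HeLa cells infected with Toxoplasma gondii; parasite growth read as luciferase light; one replicate is shown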
* = called active by the depositor; i = inactive; & = joins results of further samples.

SMILES	Tg IFNy HTS
Oc1cccc(-c2c3nc(c(-c4cccc(O)c4)c4ccc([nH]4)c(-c4cccc(O)c4)c4nc(c(-c5cccc(O)c5)c5ccc2[nH]5)C=C4)C=C3)c1	9.6
CC(C)N1CC2(CCOCC2)c2cc(NC(=O)c3ccco3)ccc21	12.5
CO[C@H]1CN(C)C(=O)c2ccc(NC(C)=O)cc2OC[C@H](C)N(Cc2cccc(F)c2)C[C@@H]1C	91.6
CCCC(=O)N1CC2(C1)CN(Cc1cccnc1)[C@H](CO)c1[nH]c3cc(OC)ccc3c12	59.0
Brc1ccc2oc(-c3ccn[nH]3)cc2c1	-27.2
CC(=O)CSc1nc(-c2ccccc2)c(-c2ccccc2)o1	6.4
CC(C)c1nnsc1CNC(=O)C(C)(C)NC(=O)c1cccs1	30.9
COc1ccc(-c2nc(NCCCN3CCC(N4CCCCC4)CC3)c3ccccc3n2)cc1	-54.8
C[C@@H]1CN([C@H](C)CO)C(=O)c2cc(N(C)C)ccc2O[C@@H](C)CCCCO[C@H]1CN(C)S(=O)(=O)c1ccc(F)cc1	i
Cc1noc(C)c1NC(=O)Nc1ccc2c(c1)C(=O)N([C@H](C)CO)C[C@H](C)[C@H](CN(C)S(=O)(=O)c1cccs1)OCCCC[C@@H](C)O2	43.5
COC(=O)c1cc(CN(C)C(C)c2nc(C)sc2C)cs1 (stereo not given)	2.0
O=C(c1ccncc1)N1Cc2cnn(Cc3ccc(F)cc3)c2C1	-4.7
CC(NC(=O)C(C(=O)c1ccccc1)n1ccccc1=O)c1ccccc1 (stereo not given)	-27.8
Cc1ccc(S(=O)(=O)N2CCC3(CC2)NCCN=C3NC2CCCCCC2)c(C)c1	-44.0
NS(=O)(=O)c1ccc(CCC(=O)NC(Cc2cccs2)c2nccs2)cc1 (stereo not given)	29.3
O=C(C[C@@H]1CC[C@@H]2[C@H](COC[C@H](O)CN2S(=O)(=O)c2ccc(F)cc2)O1)NCCN1CCCCC1	3.6
CN1C(=O)CCC12CCCN(C(=O)NCc1ccccc1)CC2 (stereo not given)	-4.9
OC[C@H]1O[C@H](O[C@H]2O[C@H](CO)[C@@H](O)[C@H](O)[C@H]2O)[C@H](O)[C@@H](O)[C@@H]1O	7.9
COc1cc(-c2nccnc2OC)cc(OC)c1OC	9.4
O=C(CNCc1ccc2c(c1)OCO2)Nc1cnccn1	2.6
CCN(CC)C(=O)c1cnc(N(C)C)nc1-c1ccc(CNC(=O)CCOC)cc1	-31.8
CC(=O)Nc1ccc(-c2c(-c3ccccc3)ncn2Cc2ccco2)cc1	-3.3
Cc1ccc(C(C)N2CCN(C(=O)c3c(-c4ccncc4)noc3C)CC2)cc1 (stereo not given)	-0.7
CN1CCN(C(=O)c2cc3c(c(-c4cccc(Br)c4)n2)[C@H](CCO)N([S@@](=O)C(C)(C)C)C3)CC1	-46.6
CN(C)C(=O)c1cccc(-c2ccc([C@@H]3[C@@H](CO)N4CCCCN(CC5CCOCC5)C[C@H]34)cc2)c1	-36.8
SMILES	Tg IFNy HTS
CCOC(=O)N1CCC(NC(=O)c2cc(Cl)sc2Cl)CC1	67.7
Cc1ccc(-c2nnc(-c3nc(NCc4ccc(C)o4)c4ccccc4n3)o2)cc1	490.1
Cc1oc(C2CCN(S(=O)(=O)c3cccs3)CC2)nc1C(=O)N1CCCC1	57.8
CC(C)NC1CCc2c(ccc(=O)n2CCN(C)C)C1 (stereo not given)	27.9
Cc1ccc(-c2nnc(CNC(=O)Cc3ccc(F)cc3)o2)s1	-17.9
O=C1CN(C(=O)CSCc2c(F)cccc2Cl)c2ccccc2N1	-41.7
N#C[C@H]1N[C@@H](CO)[C@@H]1c1ccc(C#Cc2ccccc2F)cc1	14.0
O=S(=O)(c1cccc(F)c1)N1CCC2(CC1)Nc1cc(F)ccc1-n1cccc12	24.6
CCOC(=O)Cn1ccc2ccnc(-c3cccc(OC)c3)c21	-2.4
CCc1[nH]c2ccc(CNC(=O)c3ccc4[nH]c(=O)[nH]c4c3)cc2c1C	4.4
O=C(c1cccnc1)N1C[C@@H]2COC[C@@]2(Cc2nnc(C3CC3)o2)C1	43.9
CNC(=O)C[C@@H]1C[C@@H]2CN(Cc3ccc4c(c3)OCO4)C[C@H]2O1	4.6
C[C@@H]1CN([C@@H](C)CO)C(=O)c2cccc(NS(=O)(=O)c3cn(C)cn3)c2O[C@@H]1CN(C)Cc1ccc(Oc2ccccc2)cc1	-1.9
CSc1nc(N)n(-c2cc(C(F)(F)F)ccn2)n1	-53.0
CCCc1cc(C(=O)N2CCCC(CNC(=O)c3ccccc3Cl)C2)n(C)n1 (stereo not given)	-38.9
COCC(=O)N1C[C@H](C)[C@@H](OC)CN(C)C(=O)c2ccc(NC(=O)Nc3cccc(F)c3)cc2OC[C@H]1C	57.8
C[C@H](O)C#Cc1ccc([C@@H]2[C@@H](CO)N3CCCCN(CC4CC4)C[C@@H]23)cc1	18.0
O=C(NCc1cccc(Br)c1)c1nc(N2CCOCC2)c2ccccc2n1	-52.6
Cc1oc(C(C)C)cc1C(=O)N(C)Cc1ncc[nH]1	-7.8
Cc1cccc(C(=O)O)c1O	10.0&11.9
Cn1c(=O)n(C)c2cc(Cn3ccnc3C3CCOC3)ccc21 (stereo not given)	7.1
C=CCNc1ccccc1C(=O)N(C)Cc1n[nH]c2c1CCCCC2	-2.5
COc1ccccc1-c1cccc(-c2nc(C(=O)N3CCN(C)CC3)cc3c2[C@@H](CCO)N([S@](=O)C(C)(C)C)C3)c1	15.7
Cc1cc(C)n(C2=NCCN2S(=O)(=O)c2cc(C(F)(F)F)cc(C(F)(F)F)c2)n1	-89.8*
CCOc1ccccc1CNC(=O)c1nc(N2CCOCC2)c2ccccc2n1	-66.5

Reprinted from the part before: seven compounds, then new ones.
SMILES	Tg IFNy HTS
Cc1oc(C(C)C)cc1C(=O)N(C)Cc1ncc[nH]1	-7.8
Cc1cccc(C(=O)O)c1O	10.0&11.9
Cn1c(=O)n(C)c2cc(Cn3ccnc3C3CCOC3)ccc21 (stereo not given)	7.1
C=CCNc1ccccc1C(=O)N(C)Cc1n[nH]c2c1CCCCC2	-2.5
COc1ccccc1-c1cccc(-c2nc(C(=O)N3CCN(C)CC3)cc3c2[C@@H](CCO)N([S@](=O)C(C)(C)C)C3)c1	15.7
Cc1cc(C)n(C2=NCCN2S(=O)(=O)c2cc(C(F)(F)F)cc(C(F)(F)F)c2)n1	-89.8*
CCOc1ccccc1CNC(=O)c1nc(N2CCOCC2)c2ccccc2n1	-66.5
CCC(=O)NC1CCc2cccc(OC)c2C1 (stereo not given)	2.9&3.9
CC1c2ncc(COCC3CC3)n2CCN1S(C)(=O)=O (stereo not given)	-21.6
Cc1cccn2c(CNC(C)Cn3cncn3)cnc12 (stereo not given)	-6.7
C[C@H]1CN([C@@H](C)CO)C(=O)c2cccc(NS(=O)(=O)c3cn(C)cn3)c2O[C@@H]1CN(C)Cc1ccc(Oc2ccccc2)cc1	-67.1
COCc1nc(NCCC2COc3ccccc3O2)c2cnn(C)c2n1 (stereo not given)	5.4
CN(Cc1noc2c1CCCC2)C(=O)c1cn[nH]n1	11.7
CC(=O)c1ccc(-c2cc(NCc3ccncc3)nc3[nH]ccc23)nc1	0.3
Cc1cc(-c2nccn2CCN2CCCC(C(N)=O)C2)oc1C (stereo not given)	5.4
CCc1nnsc1C(=O)N1CCOC(Cc2ccc(OC)cc2)C1 (stereo not given)	-4.2
Cc1ccc(S(=O)(=O)N2CCC(C(=O)N[C@@H](C)C(=O)NC3CCS(=O)(=O)C3)CC2)cc1 (stereo not given in full)	-19.2
CCCCN(CC)C(=O)c1cc2cccnc2n(Cc2ccccc2)c1=O	81.2
Cc1nonc1OCCn1cnc(-c2ccccc2)c1-c1ccc(CO)o1	5.1
Cn1ccnc1CN1CCN(C(=O)c2nccc3ccccc23)CC1	-28.9
O=C(c1ccccc1F)N1C[C@@H]2[C@H](c3ccccc31)[C@H](CO)N2C(=O)Nc1ccccc1	-18.1
CN(C)CC(=O)N[C@H]1C=C[C@H](CC(=O)NCc2ccc(Cl)cc2)O[C@H]1CO	-5.8
CC[C@@H]1N(S(=O)(=O)c2cn(C)cn2)CCC[C@@]12CCC(=O)N2	-1.0
O=C1c2ccc(F)cc2C(=O)N1c1ccc(F)c(Cl)c1	3.5
O=C(c1cc(-c2ccccc2)on1)N1CCCn2cncc2C1	6.6
COCc1cc(CNC(=O)C(=O)N2CCc3ccccc32)[nH]n1	2.3
Cc1oc(-c2ccc(Cl)cc2)nc1Cn1nnc(C(=O)Nc2ccc(F)c(F)c2)c1C	-5.9
Cc1ccc2nc(N3CCN(CC(=O)NC(C)C)CC3)cc(C)c2c1	62.6
O=C(O)COc1ccc(-n2ccnc2-c2ccccn2)cc1Cl	-5.4
O=C(Nc1ccccc1F)N1C[C@H]2[C@@H](c3ccccc31)[C@H](CO)N2C(=O)Cc1cccnc1	29.0
COc1ccc(-c2nc(C)c(CCNC(=O)C(=O)Nc3ccc(F)cc3F)s2)cc1OC	-26.8
C/C=C/c1cnc2c(c1)C(=O)N([C@@H](C)CO)C[C@@H](C)[C@@H](CN(C)C(=O)Nc1cccc(OC)c1)O2	i
SMILES	Tg IFNy HTS
C[C@H](CO)N1C[C@H](C)[C@@H](CN(C)Cc2ccc(Oc3ccccc3)cc2)Oc2c(NS(=O)(=O)c3cn(C)cn3)cccc2C1=O	35.7
Fc1cccc(-c2nc3c(c(NC4CC4)n2)CNCC3)c1	-86.1*
O=C(O)c1ccccc1NCCc1ccccc1	75.5
COc1ccc2[nH]c(C(=O)NCCc3ccccn3)c(C)c2c1	423.3
COc1ccc(-c2nc(CN3CCN(Cc4cc(=O)oc5cc(C)ccc45)CC3)c(C)o2)cc1	-8.9
COc1cccc(-c2cnc(Nc3ccc(F)cc3)s2)c1	420.4
CCCCN(CCCC)CCNC(=O)C1=C(C)C(=O)OC12CCN(S(=O)(=O)CC)CC2	-1.3
O=C(NCCc1ccccc1)Nc1ccc(-c2nc(-c3ccccc3)co2)cc1	59.3
O=C(NC1CCCC1)C1(Cc2ccccc2-c2coc3ccccc23)CCOCC1	-49.7
Cc1ccc(CN2CCc3c(C(=O)N4CCOCC4)n[nH]c3C2)s1	-2.9
Cc1cnn(Cc2nc(-c3ccc(NC(=O)c4ccsc4)cc3)oc2C)c1	-40.9
O=C1c2cccnc2CN1C(CCn1cncn1)c1ccccc1 (stereo not given)	-5.3
Cc1nc(-c2ccc(F)cc2)sc1CCNC(=O)CCc1ccccc1	3.5
COc1ccccc1OCc1cc(C(=O)N(C)C2CCSCC2)n[nH]1	96.6
O=c1c2c(n3nnnc3n1-c1ccccc1)-c1ccccc1CC21CCCC1	0.7
COCc1cn(CC2CCN(C(=O)c3ccc4nccnc4c3)CC2)nn1	-3.9
CN(C)c1ccc(/C=C/CN2CCC3(CC2)C(=O)N(Cc2ccccc2)C(=O)N3C)cc1	25.2
COCC(=O)N1CC[C@H]2C[C@H](c3nc(C)no3)O[C@H]2C1	-49.1
COCC#Cc1ccc([C@H]2[C@@H](CO)N3C(=O)CN(C(=O)c4ccncc4)C[C@@H]23)cc1	-5.6
COc1cccc(CN2CCCCC2CN2CCOCC2)c1F (stereo not given)	2.2
COc1ccc(C(=O)c2cc(Cl)c(C(=O)c3ccc(OC)cc3)cc2Cl)cc1	-19.1
Cc1nc2sc3c(c2c(=O)[nH]1)CCC3	10.6
CCCc1ccc(C(=O)N2CCCC(O)(CN(C)C)C2)cc1 (stereo not given)	1.3
Cc1ccc(-c2nc(Cn3ccn4nc(-c5ccc(F)cc5)cc4c3=O)c(C)o2)cc1	111.6
CCc1nn(C)c(Cl)c1CN1CCC2(CCNCC2)CC1	4.5
SMILES	Tg IFNy HTS
CN(Cc1nc2ccc(Cl)cc2[nH]1)C(=O)c1cnn2ccn(C)c12	3.9
Cc1cccc(NC(=O)Cn2c(=O)cc(C(=O)N3CCc4ccccc4C3)c3ccccc32)c1C	-14.7
CN(C)CC1(O)CCCN(C(=O)c2cnc3ccccn3c2=O)C1 (stereo not given)	4.8
Cn1cncc1CN1CCOC2(CCCN(c3cccc(F)c3)C2)C1 (stereo not given)	22.1
Cc1ccc(-c2nc(C)c(CCNS(=O)(=O)c3ccc(F)c(C(F)(F)F)c3)s2)cc1	24.6
CCN1CCCC(C2NCCc3nc(N)sc32)C1 (stereo not given)	6.2
COc1cccc(C(=O)NCCc2sc(-c3ccccc3)nc2C)c1	i
CCN1CC2(CC1=O)CN(C(=O)N(C)C)CCN(S(=O)(=O)C1CC1)C2 (stereo not given)	5.2
CN1CCN(C(=O)[C@H]2[C@H](CO)[C@H]3Cn4c(cccc4=O)[C@H]3N2Cc2cc(F)ccc2F)CC1	-0.5
Cc1nonc1NC(=O)Nc1ccncc1	3.0
CC(C)c1noc(CCNC(=O)c2cn3c(n2)CNCC3)n1	-4.4
O=C(O)C1CC(N2CCCC2)CCN1C(=O)c1ccc(F)cc1 (stereo not given)	-20.3
C[C@H](CO)N1C[C@H](C)[C@H](CN(C)Cc2ccc(F)cc2)Oc2cc(C#CC(C)(C)O)ccc2S1(=O)=O	274.6
CCC1CCCCN1C(=O)CCNc1c(-c2ccccc2OC)nc2cnccn12 (stereo not given)	37.8
CCn1c(CC2CCN(c3cc(C)nc(C(C)C)n3)CC2)nn(C)c1=O	-3.5
O=C(Nc1ccc2c(c1)OCCO2)c1cncc(-c2cccs2)c1	197.7
Cc1ccc(C2(O)CCN(CC(=O)N3CCOc4ccccc43)CC2)nc1	-7.9
Cc1ccc(NC(=O)CN2C(=O)CCc3cc(S(=O)(=O)N4CCC(C)CC4)ccc32)cc1	18.7
COc1ccc2c(c1)NC1(CCN(S(=O)(=O)c3ccc(F)cc3)CC1)c1cccn1-2	-29.1
O=C(O)CN1CC2CCC(C1)N2C(=O)c1ccco1	-0.7
Cc1nc(-c2ccccc2)c(CC(=O)Nc2cc3c(cc2C)OCCO3)s1	-25.6
CCNC(=O)c1cc2c(c(-c3cccc(-c4cccnc4)c3)n1)[C@H](CCO)N(S(C)(=O)=O)C2	-53.8

Molecules from the list above that contain a CF3 group (3):
SMILES	Tg IFNy HTS
CSc1nc(N)n(-c2cc(C(F)(F)F)ccn2)n1	-53.0
Cc1cc(C)n(C2=NCCN2S(=O)(=O)c2cc(C(F)(F)F)cc(C(F)(F)F)c2)n1	-89.8*
Cc1ccc(-c2nc(C)c(CCNS(=O)(=O)c3ccc(F)c(C(F)(F)F)c3)s2)cc1	24.6

Some of the compounds tested; the hit share may differ from the screen's.
